Source: PubChem BioAssay
ClpP mod – qHTS Assay for Activators of ClpP | ATP-dependent Clp protease proteolytic subunit (Bacillus subtilis (strain 168)), P80244 | purified B. subtilis ClpP, FRET peptide cleavage, 20 min | Potency, µM (doses to about 57.5 µM), without a hit: top-dose activity change, negative = active | actives 1.9% (n = 340,000) | AID 651965, 2013; active = well fitted falling curve with a large enough effect; inconclusive = small, poorly fitted or top-dose-only effect; inactive = no such curve, though single readings can be large or run the other way; note: potency is the fitted concentration of half-maximal effect; the source files actives as falling curves though it sought activators and does not explain the sign; nearly all actives have a fitted effect of over 65% in size; many hits overshoot -100%
Target sequence (P80244 whole entry, looked up): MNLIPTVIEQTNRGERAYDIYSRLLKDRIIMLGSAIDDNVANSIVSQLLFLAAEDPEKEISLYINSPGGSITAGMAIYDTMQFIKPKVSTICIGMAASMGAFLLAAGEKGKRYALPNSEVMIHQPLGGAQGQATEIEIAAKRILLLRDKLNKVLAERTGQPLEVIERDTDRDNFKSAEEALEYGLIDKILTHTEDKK
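Buffer: 100 mM Tris/HCl pH8, 100 mM KCl, 0.05% low protease BSA, 2.5% glycerol, 0.01% Tween-20. ClpP 10 microg/mL final; 20 min RT; delta FRET normalized to ADEP and DMSO controls.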
TRPV1 PAM – human TRPV1 potentiation; Q8NER1; TRPV1-expressing cells, Fluo-8 calcium influx, capsaicin EC20 potentiation; host cell line not named in the record; control for the full effect not named in the record; potentiation, % at 8.33 µM; actives 0.02% (n = 320,000); AID 540277; active means potentiation above 80%; inconclusive means 30% to 80%; inactive means below 30%; note: 0% is about no effect
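Fluo-8 calcium influx in TRPV1-expressing cells, kinetic read (ex 480/em 520 nm). Compound added and read 3 min for agonist activity, followed by capsaicin at EC20 final and 2 min further read for enhancement.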
gsp antag – antagonists of gsp mutant (McCune-Albright syndrome) | Potency, µM (series often up to 76.9 µM), for the others: top-dose activity change, negative = inhibition, hits mostly inhibitors | actives 0.4% (n = 340,000) | gsp-mutant cells, cAMP HTRF, 30 min; control for the full effect not named in the record; active = falling curve of any shape with a large fitted effect; inconclusive = falling curve, mostly with a smaller effect; inactive = flat or rising curve; cell line not stated here;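 note: intracellular cAMP measured with PDE inhibitor Ro 20-1724 present during compound exposure; potency is the fitted concentration of half-maximal effect; % is set by controls: 0 for no effect and ±100 for the full control effect; nearly all actives have a fitted effect of over 65% in size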
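G418-selected cells were plated in DMEM/10% FBS for 16-24 h at 37C, then treated with compounds plus the PDE inhibitor […] (300 uM solution added) for 30 min at 37C. Intracellular cAMP was measured by HTRF after 30 min lysis at room temperature.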
Sfp PPTase inh – inhibitors of Bacillus subtilis Sfp phosphopantetheinyl transferase. Q9F4F7. Biochemical Sfp PPTase activity, qHTS. Potency, µM, without a hit: max response, negative = inhibition, actives largely listed as inhibitors. actives 3.5% (n = 310,000); active = well fitted inhibition curve with a large enough effect; inconclusive = small, poorly fitted or top-dose-only effect, or another doubt; inactive = no such curve, though single readings can be large or run the other way;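 note: the enzyme is Sfp with the accession as filed and its product quenches rhodamine fluorescence; potency is the fitted concentration of half-maximal effect; 0% = enzyme reaction without inhibitor and -100% = no enzyme wells; top concentration of the series not given in the record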
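Reaction rates are the 30-min fluorescence difference (ex 525, em 598 nm) in wells containing 15 nM Sfp, 5 uM rhodamine-CoA and 12.5 uM BHQ-2-YbbR at pH 7.6 with 10 mM MgCl2.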
D2 potentiator – positive allosteric modulators of human D2 dopamine receptor. P14416. DiscoveRx D2 beta-arrestin cells, luminescence, 90 min; 100% = 57 uM dopamine signal. potentiation, % (concentration not given with the values). actives 0.23% (n = 360,000). AID 624464; active = potentiation of 50% or more; inconclusive = 30% to 50%; inactive = 30% or less;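 note: compound concentration not given in the record; tested on top of an EC20 dose of dopamine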
Target sequence (P14416 whole entry, looked up): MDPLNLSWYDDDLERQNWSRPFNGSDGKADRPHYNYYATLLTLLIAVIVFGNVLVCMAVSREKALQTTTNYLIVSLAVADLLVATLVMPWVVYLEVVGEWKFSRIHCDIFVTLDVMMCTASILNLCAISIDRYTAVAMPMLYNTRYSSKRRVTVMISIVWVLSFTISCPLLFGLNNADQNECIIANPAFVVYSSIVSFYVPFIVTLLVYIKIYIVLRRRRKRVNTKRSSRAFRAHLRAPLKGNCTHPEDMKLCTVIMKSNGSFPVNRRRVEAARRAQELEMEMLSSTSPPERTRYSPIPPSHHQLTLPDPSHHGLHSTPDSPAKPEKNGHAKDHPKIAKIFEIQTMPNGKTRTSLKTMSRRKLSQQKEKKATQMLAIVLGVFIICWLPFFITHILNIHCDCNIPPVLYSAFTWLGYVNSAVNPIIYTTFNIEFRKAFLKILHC
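PathHunter beta-arrestin assay in DiscoveRx D2 cells. Compounds were added with an EC20 of dopamine (50 nM final) for 90 min at 37 deg C. Luminescence was read 1 h after detection reagent, with 57 uM dopamine as the EC100 control.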
Menin MLL FP FL – inhibitors of human menin-MLL interaction, wild-type MLL peptide | 290,000 tested, under 10 active | Fluorescence polarization, fluorescein-MLL peptide displacement from menin | FP activity change, % at 61.4 µM; inconclusive = falling polarisation curve, or a change in total fluorescence; inactive = total fluorescence flat and polarisation flat or rising; no compound was filed as active; the % refers to the polarisation; negative = inhibition;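 note: % of control where 0% means no effect; inhibitors lower the polarisation; unlabelled MLL peptide was the positive control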
gsp ag – activates gsp, the McCune-Albright syndrome mutation | gsp mutant cells, cAMP HTRF, 30 min; control for the full effect not named in the record | Potency, µM (series often up to 76.9 µM), for the others: top-dose activation (cAMP increase), hits mostly activators | actives 0.13% (n = 340,000); active = well fitted activation curve with a large enough effect; inconclusive = small, poorly fitted or top-dose-only effect, or another doubt; inactive = no such curve, though single readings can be large or run the other way; cell line not stated here;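 note: phosphodiesterase inhibitor Ro 20-1724 added with compounds to block cAMP breakdown; potency is the fitted concentration of half-maximal effect; nearly all actives have a fitted effect of over 60% in size; about a fifth of the inactives were tested at one dose only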
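Cells stably selected in G418 were plated at 2000/well, grown 16-24 hr, then given compounds in DMSO with the PDE inhibitor […] (300 uM solution added) for 30 min at 37C; cAMP was read by HTRF.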
* = called active by the depositor; u = inconclusive; x = no result given; & = joins results of further samples; [ ] = another dose, or the depositor's remark.

SMILES	ClpP mod	TRPV1 PAM	gsp antag	Sfp PPTase inh	D2 potentiator	Menin MLL FP FL	gsp ag
Cc1noc(NS(=O)(=O)c2ccc(NC(=O)c3nn(-c4ccccc4)ccc3=O)cc2)c1C	-0.3%	8	14%	10%	-22	x	14µM*
O=C(Cc1ccc(Cl)c(Cl)c1)N1CCOCC1	-1.8%	-6	9%	-9%	-4	-23	-56%[inhibitor]
CN1CCN(CCOc2ccc(Cc3ccccc3)cc2)CC1	x	3	18%	-1%	-9	5.2	-4%
Cc1cccc(NC(=O)CSCC(=O)Nc2sccc2C#N)c1	-3.3%	-4	-8%	x	22	x	6%
Cc1cccc(N/N=C(\C(N)=O)C2=NC(C)(C)Cc3ccccc32)c1	-0.9%	-11	u	-19%	-14	4.4	-31%[inhibitor]
Clc1ccc(-c2csc(-c3ccno3)n2)cc1	x	-2	-2%	17%	0	3.3	-6%[15.4 µM]
CCN(C(=O)COC(=O)CCCOc1ccccc1)c1c(N)n(Cc2ccccc2)c(=O)[nH]c1=O	-1.8%	-3	9%	x	-1	x	18%
NC(=O)c1cc(N2C(=O)C3CC=CCC3C2=O)ccc1N1CCCCC1 (stereo not given)	1.7%	u	4%	8%	-11	6.5	-18%
CCCn1c(N2CCN(S(=O)(=O)Cc3ccccc3)CC2)nc2ccccc21	0.1%	26	17%	15%	-18	2.1	-33%[inhibitor]
CCCNC(=O)C(Cc1ccc(C(F)(F)P(=O)(OCC)OCC)cc1)NC(=O)c1ccc(C#N)cc1 (stereo not given)	-3.7%	x	7%	x	-49	x	x
CCn1c(SCC(=O)Nc2cc(Cl)ccc2OC)nnc1C1CC1	x	10	x	11%	-12	6.2	-5%[15.4 µM]
Cc1ccc(NC(=O)CSC2=C(C#N)C(c3ccc4c(c3)OCO4)CC(=O)N2)cc1C (stereo not given)	3.4%	14	-16%	12%	-10	3.1	3%
CC1CCCC(C)N1CCCNC(=O)CN1C(=O)c2cccnc2Oc2ccc(Cl)cc21 (stereo not given)	-1.8%	23	-2%	7%	-3	0.1	-25%
CCC(=O)N(CCC(Cc1ccccc1)c1ccco1)Cc1ccco1 (stereo not given)	x	-6	-16%	-26%	-5	-0.8	-9%[15.4 µM]
CCN(CC)c1ccc(C(=O)Nc2cccc(F)c2)cc1	-19%	-1	-10%	17%	10	4.7	-59%[inhibitor]
C[C@H](CO)N1C[C@H](C)[C@@H](CN(C)S(=O)(=O)c2cccs2)Oc2ccc(NC(=O)NC3CCCCC3)cc2C1=O	-0.4%	x	-9%	x	-8	x	x
Cc1ccc(S(=O)(=O)N2CCN(c3ccc(C(F)(F)F)cc3[N+](=O)[O-])CC2)cc1	0.4%	-10	0%	-11%	-10	3.8	-23%[15.4 µM]
Cc1ccc(NC(=O)CN(C)C(=O)COC(=O)c2ccc(Cl)cc2O)cc1	63%	-37	-25%	x	-3	x	u
CC(C)[C@H](NS(=O)(=O)c1ccc2c(c1)OCCO2)C(=O)OCC(=O)Nc1ccccc1	14%	5	2%	14%	-32	1.0	-7%
COc1ccc(-c2oc3ccc(-c4ccc5c(c4)OCO5)cc3c2C#CC2(O)CCCCC2)cc1	4.2%	x	3%	x	-51	x	x
COCCn1c(C2CCCCC2)nc2sc3ccccc3c(=O)c2c1=O	0.2%	12	14%	19%	1	4.0	-6%
COc1ccccc1NC(=O)C(C)OC(=O)COc1cccc2c1OC(C)(C)C2 (stereo not given)	1.3%	8	-4%	x	-14	x	-3%[15.4 µM]
CC(C)(C)NC(=O)CN(C(=O)CS(=O)CC(=O)Nc1ccc(F)cc1)c1ccccc1F (stereo not given)	0.9%	3	7%	1%	1	3.4	0%
Cc1ccc(NC(=O)CCCCCCCCCCC2COCCO2)c(C)c1 (stereo not given)	1.6%	23	6%	-1%	-16	3.3	-25%
Nc1ccc(S(=O)(=O)N2CCc3ccccc32)cc1	-0.2%	-5	0%	10%	-3	-0.4	-18%[15.4 µM]
Cn1nc(-c2ccccc2)cc1NC(=O)Nc1ccc(C(C)(C)C)cc1	0.2%	-45	-4%	25%	-3	0.4	3%
CCOC(=O)C1CCCN(Cc2cc(=O)oc3cc(C)c(C(C)C)cc23)C1 (stereo not given)	x	-5	x	-7%	-2	5.5	-1%[15.4 µM]
CC(C)(C)OC(=O)C[C@@H]1C/C=C\C[C@H](CC(=O)NCCO)C(=O)N2CCC[C@H]2COC1=O	-2.4%	x	12%	x	-14	x	x
Cc1ccc(-c2nnc(SCC(=O)NNC(=O)COc3cccc4ccccc34)n2C)cc1	x	u	x	20%	x	4.7	x
O=C(O)COc1ccccc1-c1ccccc1	0.8%	7	12%	32%	-2	3.0	1%
COc1cccc(N2C(=O)C(CC(=O)Nc3ccccc3)N(C3CCCCC3)C2=O)c1 (stereo not given)	-0.3%	1	-4%	3%	-10	4.3	-1%
CCCCn1c(N)c(N(CC)C(=O)C(c2ccccc2)c2ccccc2)c(=O)[nH]c1=O	0.7%	0	9%	17%	-19	-2.7	-2%
COc1ccc(NC(=O)CC2C(=O)N(c3ccc(F)cc3)C(=S)N2NC(=O)c2ccc(Cl)cc2)cc1 (stereo not given)	-2.2%	-7	9%	-3%	-4	3.8	-13%
O=C(NNc1c(Cl)cccc1Cl)c1cccs1	x	x	0%	6%	-1	-0.3	4%
O=C(CCCn1c(=S)[nH]c2ccccc2c1=O)NC1CCCC1	-3.5%	22	9%	-3%	-3	1.3	-14%
Cc1ccccc1Cn1nc(C)c(NC(=O)c2cc3nc(-c4ccco4)cc(C(F)(F)F)n3n2)c1C	-21%	9	2%	-1%	5	6.7	28%
COCCn1c(SCC(=O)NCc2ccc3c(c2)OCO3)nnc1C(C)C	-1.0%	-3	9%	17%	-3	-3.2	-1%[15.4 µM]
CC(C)c1ccc(-c2cc(C(=O)N3N=C(C(F)F)CC3(O)C(F)F)c3ccccc3n2)cc1 (stereo not given)	28µM*	-32	-13%	22%	-8	-0.3	u
Cc1ccc(Cn2c(SCC(=O)NCC3CCCO3)nc3c(sc4ccccc43)c2=O)cc1 (stereo not given)	24%	8	2%	2%	-21	4.0	27%
COc1ccc(C(CNC(=O)c2ccc(NS(=O)(=O)c3cccc([N+](=O)[O-])c3)cc2)N2CCOCC2)cc1 (stereo not given)	-2.3%	5	-31%	-3%	-14	-0.6	-2%
O=C(NCc1cccnc1)C(=O)NCC1OCCN1S(=O)(=O)c1ccc(Cl)cc1 (stereo not given)	-0.8%	2	5%	29%	-5	3.3	-42%
Cc1ccccc1Cn1nc(C)c(NC(=O)c2noc3c2CCCC3)c1C	-3.1%	-2	2%	4%	-4	7.5	u
CN(C)CCOc1cc(Cl)cc(Cl)c1	0.8%	1	2%	8%	-8	5.6	-3%
Cc1ccc(CNC(=O)CSc2nccn(-c3ccc(C)c(F)c3)c2=O)cc1	0.6%	-5	1%	x	-9	x	3%[15.4 µM]
CCn1c(SCC(=O)Nc2ccc3c(c2)OCCO3)nc2c(c1=O)SC(C)C2 (stereo not given)	-2.5%	3	-19%	6%	5	5.7	-16%
Cn1c(-c2sccc2OCc2ccc(Cl)cc2Cl)n[nH]c1=S	x	-13	-25%	3%	-8	-0.6	14%[15.4 µM]
N#CC1=CC2CN(Cc3ccccc3)C1C1C(=O)N(c3ccccc3)C(=O)C21 (stereo not given)	2.0%	x	6%	x	-11	x	-1%
CCOc1ccc(NC(=S)N2CCC(N(C)CC3CCCO3)CC2)cc1 (stereo not given)	1.8%	3	8%	-17%	2	0.9	-55%[inhibitor]
CCN(c1ccccc1C)S(=O)(=O)c1nnc(NC(=O)c2ccco2)s1	-8.0%&-7.4%	10	-7%	6%	-21	x	u
CCCCC1CC(CSC(=N)N)OC1=O (stereo not given)	1.1%	20	5%	-17%	-7	-0.2	21%
O=C(NCCc1ccccc1)c1cccc(N2C(=O)C3CC=CCC3C2=O)c1 (stereo not given)	x	1	-12%	7%	2	-1.5	31%[15.4 µM]
O=C(Nc1ccc(Br)c(Cl)c1)C1CC1	-0.7%	-22	u	7%	5	1.8	-3%
O=[N+]([O-])c1cccc(C(=Nc2cccc(Cl)c2)NO)c1	0.3%	21	-18%	6%	4	-3.0	-44%[inhibitor]
CCC[N+](CC#Cc1ccccc1)(CCC)CC(=O)OCC	-1.4%	0	4%	16%	-5	-0.3	16%[15.4 µM]
COc1ccc(C(=O)NCc2nnc(SCC(=O)Nc3nc4ccccc4s3)o2)cc1OC	1.7%	14	15%	-14%	-11	4.7	-5%
CC(C)CNS(=O)(=O)c1ccc(CCC(=O)NCc2ccco2)cc1	-7.5%	28	-3%	40µM*	-4	2.2	-1%[15.4 µM]
Cc1ccc(S(=O)(=O)N2CCN(C(=O)COC(=O)COc3cccc4c3OC(C)(C)C4)CC2)cc1	1.7%	-3	-24%	x	-18	x	10%
CN(C)c1ccnc(Oc2ccccc2)c1C#N	1.4%	16	-9%	u	-2	2.2	2%
Cc1ccc(Cn2c(C(C)Nc3nc(-c4ccc(Cl)cc4)cs3)nc3cc(C(=O)NCCCO)ccc32)cc1 (stereo not given)	-2.9%	x	-6%	x	4	x	x
